Ecoli growth: blocks Escherichia coli growth. OD600, 23 h; hits give low values. OD600 absorbance (no concentration beside the values). 330,000 tested, 0.21% active;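 active = OD600 absorbance below the run mean of sample wells minus 3.6 SD, in any replicate, cut at about 0.56 in these data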;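 note: stock transfer was 300 nL into about 60 µL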
rRNA inh HTS: selective bacterial rRNA inhibition in E. coli; E. coli WT GFP vs humanized-ribosome RFP mutants, fluorescence, 24 h; hits give low values; DMSO median 0, no signal -100; GFP signal change (wild-type ribosome), % (test concentration not listed); 350,000 tested, 1.6% active;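 active = significant combined selectivity score with lowered wild-type GFP, culture density cut under 30%, mutant RFP and density less affected; inactive = any of these conditions unmet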; note: one replicate is shown; some compounds called inactive have numbers as strong as hits
HNF4A DNA FP: change in binding of human HNF4 alpha to DNA. P41235. HNF4a-FITC DNA binding, fluorescence polarization, 1 h. activity change, % at 10 µM. 360,000 tested, 0.3% active. AID 1224865; in the data active = activity change above about 30%, passing the limit was not always enough;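 note: controls were the assay level and a saturating level of protein; the project sought stronger binding though the title names inhibitors; some compounds called inactive have numbers as strong as hits; positive values seem to mean higher polarization but the record does not say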
Target sequence (P41235 whole entry, looked up): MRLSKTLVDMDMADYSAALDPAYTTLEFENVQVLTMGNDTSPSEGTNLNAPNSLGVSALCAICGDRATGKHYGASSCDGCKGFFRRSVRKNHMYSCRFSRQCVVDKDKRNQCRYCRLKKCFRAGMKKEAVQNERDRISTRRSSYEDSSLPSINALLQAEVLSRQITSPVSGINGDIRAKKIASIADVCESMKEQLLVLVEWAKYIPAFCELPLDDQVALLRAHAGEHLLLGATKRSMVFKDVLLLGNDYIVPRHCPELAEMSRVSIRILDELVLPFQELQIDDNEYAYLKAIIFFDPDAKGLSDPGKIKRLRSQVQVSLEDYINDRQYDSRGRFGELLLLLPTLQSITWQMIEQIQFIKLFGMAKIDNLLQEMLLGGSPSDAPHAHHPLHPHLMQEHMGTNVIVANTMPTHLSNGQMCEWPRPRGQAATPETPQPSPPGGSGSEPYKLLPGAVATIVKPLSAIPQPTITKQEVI
FGF22 binding: shifts melting point of recombinant human FGF22; 340,000 tested, 1.5% active; recombinant FGF22 thermal shift, SYPRO orange fluorescence; percent of sucrose octasulfate shift, DMSO zero; Q9HCT0; AID 651658; calls only at 9.99 µM;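 active = melting point raised past a set limit in the mean and every replicate; inconclusive = no clear call; three in four hits are not shown here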
Target sequence (Q9HCT0 whole entry, looked up): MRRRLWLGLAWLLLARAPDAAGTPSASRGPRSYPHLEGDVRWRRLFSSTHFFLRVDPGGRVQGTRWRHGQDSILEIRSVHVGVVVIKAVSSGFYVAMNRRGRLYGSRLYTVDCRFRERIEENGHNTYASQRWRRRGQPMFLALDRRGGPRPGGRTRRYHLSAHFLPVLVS
ALR H2O2 inh: human ALR oxidase inhibition via reduced H2O2. AID 485317. inhibition, % (test concentration not listed). P55789. purified ALR, DTT oxidation, H2O2 HRP-luminol luminescence. 290,000 tested, 3.8% active;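 active = mean and each replicate at 75% or more; inconclusive = only one of the two met; inactive = neither met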;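 note: stock transfer was 7.5 nL into about 7.5 µL; 0% = neutral wells and 100% = wells with inactivated enzyme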
Target sequence (P55789 whole entry, looked up): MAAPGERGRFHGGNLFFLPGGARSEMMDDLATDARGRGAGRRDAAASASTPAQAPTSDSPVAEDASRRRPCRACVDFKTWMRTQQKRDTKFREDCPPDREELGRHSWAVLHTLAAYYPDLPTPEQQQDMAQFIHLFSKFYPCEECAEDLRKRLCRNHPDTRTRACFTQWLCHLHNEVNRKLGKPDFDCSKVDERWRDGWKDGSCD
AF4-AF9 inh: blocks AF4 peptide binding to human AF9; inhibition, % at 10 µM; 350,000 tested, 0.47% active; AlphaScreen, biotin-AF4 peptide binding to FLAG-AF9; P42568;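 active = every replicate reaching a set inhibition limit, whatever the replicate mean, cut at about 25% in these data; inconclusive = mean inhibition reaches that limit but some replicates miss it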;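 note: 0% = plate neutral control median and 100% = total signal loss; the record names both 10 and 1 µM as test concentration; the first replicate is given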
Vif TR-FRET: inhibitors of Vif binding to APOBEC3G peptide, primary screen, biochemical, TR-FRET, GST-Vif 1-94, biotin-A3G peptide, dose response retest (AID 1117319). inhibition, %, or IC50 in µM where a hit was titrated. TR-FRET GST-Vif / biotin-A3G peptide binding; higher % means a stronger effect; test concentration not given here; strong numbers were not always called active. 260,000 tested, 0.57% active;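 active = above the screen mean plus three standard deviations and confirmed in dose response; inconclusive = results disagree or hit not tested in dose response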;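 note: Vif residues 1-94 fused to GST binding biotinylated APOBEC3G peptide 110-148; 0% = full assay without inhibitor and 100% = GST in place of GST-Vif; retest series ran down from 100 µM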
rRNA inh HTS OD600: also measured in rRNA inh HTS; calls as there; OD600 change, %; measured here: OD600 growth;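 optical density of the mix in the first replicate; 0 = DMSO median and -100 = no signal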
rRNA inh HTS RFP: second read-out of rRNA inh HTS, no call of its own (marks repeat the call); RFP signal change, %; measured here: RFP humanized mutant strains;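 first replicate; 0 = DMSO median and -100 = no signal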
An asterisk follows results filed as active; i = inactive; u = inconclusive; x = not tested or not shown; & = joins results of further samples. Some of the compounds tested; count on the stated rates, not on these rows.

Results follow in this order: Ecoli growth, rRNA inh HTS, rRNA inh HTS OD600, rRNA inh HTS RFP, HNF4A DNA FP, FGF22 binding, ALR H2O2 inh, AF4-AF9 inh, Vif TR-FRET
[1] COc1ccccc1OCC(=O)NCC1CCCN(C(=O)c2cccc(C)c2)C1 (centres undefined)
→ x, 12, 3, 0.1, 8.4, i, x, 0.4, x
[2] O=C(NCc1ccco1)c1ccc(CN2CCOCC2)cc1
→ 0.66, x, x, x, 7.7, x, 1, x, -2%
[3] Nc1ccn([C@@H]2O[C@H](CNCc3ccc(OCC(=O)Nc4nccs4)cc3)[C@@H](O)[C@H]2O)c(=O)n1
→ x, 8, 10, -7.2, 3.9, i, x, 2.3, 1%
[4] Cc1ccc(-c2noc(CCC(=O)NC3CCN(Cc4ccccc4)CC3)n2)cc1
→ 0.74, x, x, x, -38, x, x, x, 11%
[5] CC(C)N1C(=O)N(c2ccccc2)C(C)(O)CC1(C)C (centres undefined)
→ 0.68, 14, 3, -1.4, 0.6, i, 4, -0.4, -7%
[6] COC(=O)c1sccc1S(=O)(=O)Nc1ccc(C(O)(C(F)(F)F)C(F)(F)F)cc1
→ x, -56, -73, -15, -2.1, i, x, -16, x
[7] Clc1ccc(NC2(c3nnnn3C3CCCCC3)CCCCC2)cc1
→ 0.71, x, x, x, 1.0, x, -6, x, 21%
[8] C[C@@H]1CN([C@@H](C)CO)C(=O)c2cc(-c3cncnc3)cnc2O[C@@H]1CN(C)Cc1ccccc1
→ x, 2, 2, -4.5, x, i, x, -2.1, x
[9] CC(=O)OCCNc1cc(N2CCN(C)CC2)c2noc3c2c1C(=O)c1ccccc1-3
→ 0.89, -16, 12, 20, -20, i, x, 86*, 3%
[10] COc1ccc(C(=O)NCCCCc2ccccc2)cc1
→ 0.62, -4, -14, -5.3, 0.3, i, -10, -5.5, x
[11] CCN(CC)S(=O)(=O)c1ccc(NC(=O)COC(=O)CNS(=O)(=O)/C=C/c2ccccc2)cc1
→ 0.73, x, x, x, 2.7, x, -3, x, 12%
[12] Cc1ccc2cccc(OCc3cccc([N+](=O)[O-])c3)c2n1
→ 0.69, -4, 2, 0.5, -1.3, i, -3, 3.7, 4%
[13] COc1cccc(NC(=O)CC(c2ccc(OC(C)C)cc2)c2ccccc2OC)c1 (centres undefined)
→ 0.69, 1, 7, 2.0, -1.3, i, 1, -0.7, -2%
[14] C=CCN(c1ccccc1OC)S(=O)(=O)c1ccc(Cl)c(C(=O)Nc2ccc(N3CCOCC3)cc2)c1
→ 0.73, -11, -8, -1.7, 2.0, i, -3, 15, 6%
[15] O=C(Nc1ccccc1Cl)C1Cc2ccccc2O/C1=N\O (centres undefined)
→ x, 4, 3, 0.5, 4.7, i, 1, 5.1, x
[16] c1ccc2c(c1)c1ccccc1n2CN1CCOCC1
→ 0.71, x, x, x, -0.9, x, -17, x, -1%
[17] CCOC(=O)N1CCN(C(=O)C2CC(=O)N(Cc3ccc(OC)cc3)C2)CC1 (centres undefined)
→ 0.71, x, x, x, 1.4, x, -8, x, 7%
[18] COCCn1c(=O)[nH]c2cc(C(=O)N3CCN(c4cccc(C)c4C)CC3)ccc2c1=O
→ 0.67, 6, 11, 0.3, 0.2, i, 1, -1.6, x
[19] CC(C)(OC1OC(CO)C(O)C(O)C1O)[C@H]1Oc2ccc3ccc(=O)oc3c2[C@H]1O (some centres undefined)
→ x, -3, -2, 6.3, 3.5, i, x, -0.8, -1%
[20] Cc1ccc(NC(=O)c2ccc(CSc3nccc(C)n3)cc2)cc1
→ 0.69, 0, -11, -2.3, 1.9, x, -2, x, 10%
[21] Cc1cc(C(=O)NC(=S)Nc2cccc(C(=O)O)c2C)ccc1[N+](=O)[O-]
→ x, 2, -8, -4.4, 1.2, i, 7, -7.9, 2%
[22] COc1cc2c(cc1OC)C(C)N(C(=O)C(NC(=O)c1ccccc1)C(C)C)CC2 (centres undefined)
→ 0.69, 2, 7, -1.2, 1.8, i, 7, 1.9, x
[23] C[C@@H]1CN([C@H](C)CO)C(=O)c2cccc(NC(=O)c3nc4ccccc4s3)c2O[C@@H]1CN(C)S(=O)(=O)c1ccc(Cl)cc1
→ x, 4, 10, 6.2, x, i, x, 2.5, x
[24] CCC(=O)N[C@@H]1C=C[C@@H](CC(=O)NCc2cc(F)cc(F)c2)O[C@@H]1CO
→ x, -1, -5, 1.8, x, i, x, -2.7, x
[25] Cc1cc2nnc(SCC(=O)NCC(c3ccccc3)N(C)C)n2c2ccccc12 (centres undefined)
→ 0.74, 3, 8, -1.3, 2.7, i, -13, -1.4, x
[26] O=C(CC1C(=O)NCCN1Cc1ccc(F)cc1)NCCOc1cccnc1 (centres undefined)
→ 0.71, 15, 4, 3.4, -5.6, i, -16, -2.7, 3%
[27] COc1ccc(CCNC(=O)c2ccc3nc(-c4ccco4)c(-c4ccco4)nc3c2)cc1OC
→ 0.73, x, x, x, -42, x, -11, x, 0.45µM*
[28] CCC(=O)[C@@H](C)[C@@H](OC(C)=O)[C@H](C)C[C@@H](C)[C@H]1OC(=O)C[C@@]2(O)CC=C(C)C(O2)C(C)=CCCC[C@H](O[C@H]2C[C@@H](OC(N)=O)[C@H](OC(C)=O)[C@@H](C)O2)C=C[C@H](C)C[C@H]1C
→ x, 5, 10, -4.2, 5.5, i, x, -2.5, x
[29] COc1ccc(C(=O)n2cc(C(=O)c3cc(C)ccc3O)cn2)cc1OC
→ 0.66, -7, -10, 6.9, -4.5, i, 30, -2.9, -2%
[30] Cc1ccc2c(c1)Cc1nc3ccccc3nc1-2
→ 0.67, 5, 7, 9.7, 0.9, i, -4, -0.7, 4%
[31] O=C(O)c1cccc(Nc2nc3ccccc3nc2NS(=O)(=O)c2ccc(F)cc2)c1
→ 0.65, 6, -17, 6.0, 1.4, i, u, 0.0, x
[32] CC(=O)Nc1ccc(NC(=O)CSc2nnc3c4ccccc4n(C)c3n2)cc1
→ 0.67, 5, 33, 9.0, 2.9, x, -18, -0.3, -13%
[33] S=C(NN=Cc1ccc2c(c1)OCO2)NN=Cc1ccc2c(c1)OCO2
→ 0.67, -6, 9, -8.7, -0.1, i, x, -1.1, -9%
[34] Cc1nn(-c2ccccc2C(F)(F)F)c(=O)c2noc(C)c12
→ 0.64, 15, 6, -0.5, 3.5, i, x, -1.4, -10%
[35] Cc1ccc2nc(-c3ccc(C#N)cc3)c(Cc3ccccn3)n2c1
→ x, 6, 11, 0.4, -12, i, x, -3.3, x
[36] O=C(C1CCCCC1)N1CCN(S(=O)(=O)c2ccc(Br)cc2)CC1
→ 0.77, x, x, x, 1.8, x, -11, x, 8%
[37] CCCC(NC(=O)COc1cc2c(c3oc(=O)cc(C)c13)CCC(C)(C)O2)C(=O)O (centres undefined)
→ 0.66, -3, -2, 1.3, 2.7, i, 21, 1.2, 1%
[38] N#Cc1c(NCCN)nc(-c2ccccc2)c2c1CCCC2
→ 0.72, x, x, x, -0.2, x, -5, x, -1%
[39] COc1ccc(S(=O)(=O)N2CCOC2CNC(=O)C(=O)NCCc2c[nH]c3ccccc23)cc1 (centres undefined)
→ 0.75, -1, -11, -7.9, 0.7, i, -4, 2.1, -1%
[40] CC1(C)CC(=O)C(N=Nc2cc3c(cc2[N+](=O)[O-])OCCO3)=C(O)C1
→ 0.7, 12, 12, 3.3, 0.3, x, -5, 2.4, -8%
[41] Cc1noc(C)c1NC(=O)N(C)C[C@@H]1Oc2ccc(NC(=O)Cc3cn(C)c4ccccc34)cc2C(=O)N([C@@H](C)CO)C[C@H]1C
→ x, -1, 3, 0.7, x, i, x, -9.4, x
[42] CO[C@@H]1CN(C)C(=O)c2cc(NC(=O)NC(C)C)ccc2OC[C@@H](C)N(C(=O)CC2CC2)C[C@@H]1C
→ x, 2, -5, -3.2, x, i, x, 1.1, x
[43] CN(/N=C/c1ccc2c(c1)OCO2)c1nc(N2CCOCC2)nc(N2CCOCC2)n1
→ x, 29, 0, 1.5, 2.7, i, -2, -0.9, x
[44] CO[C@H]1CN(C)C(=O)c2ccc(NC(=O)Nc3cc(F)ccc3F)cc2OC[C@@H](C)N(C(=O)c2ccccn2)C[C@@H]1C
→ x, -4, -7, 0.3, x, i, x, -1.6, x
[45] COc1ccc(CNC(=O)CCN2C(=O)c3ccccc3C2=O)cc1OC
→ 0.65, 8, 5, 1.0, -0.6, i, x, -5.5, x
[46] COc1ccc(NC(=O)Nc2cccc3c2O[C@H](CN(C)Cc2ccc(C(=O)Nc4ccccc4N)cc2)[C@H](C)CN([C@H](C)CO)C3=O)cc1
→ x, -3, -2, -3.0, x, i, x, 4.7, x
[47] Cc1ccc(S(=O)(=O)Nc2ccc3c(c2)C(=O)N([C@H](C)CO)C[C@H](C)[C@@H](CN(C)C(=O)Nc2ccc(C(F)(F)F)cc2)O3)cc1
→ 0.69, 1&-14, 0&-17, 12&-3.2, 0.5, i, x, -1.6, 3%
[48] C[C@H](NC(=O)c1nc[nH]c1C(=O)N(C)CCO)c1ccccc1
→ x, 12, 18, 3.3, -0.2, i, x, -0.3, x
[49] COc1cccc(NC(=O)CN2CCCCCC2)c1
→ 0.65, 7, 8, -1.0, -0.7, i, 7, -1.1, x
[50] CC(C)Oc1ccc(C(=O)CCN2CCCCC2)cc1
→ 0.67, x, x, x, -2.9, x, x, x, 1%
[51] CCc1nc(SCC(=O)NC2CCCC2)c2c(=O)n(C)c(=O)n(C)c2n1
→ 0.73, 11, 7, 2.1, -0.2, i, 1, -1.9, -8%
[52] CN(C)CC(=O)N1CCCCN2[C@H](CO)[C@H](c3ccc(-c4cccnc4)cc3)[C@@H]2C1
→ x, 3, 13, -1.0, x, i, x, -3.9, x
[53] CC1=NN(C(N)=S)C(=O)C1N=Nc1ccc(Cl)cc1Cl (centres undefined)
→ 0.64, -8, 9, -4.4, -4.0, i, 66, -5.4, 3%
[54] O=C(NC1CCCC1)[C@@H]1[C@@H](CO)[C@@H]2Cn3c(ccc(-c4ccncc4)c3=O)[C@@H]2N1CC1CC1
→ x, -3, 0, -2.5, x, i, x, -0.2, x
[55] Cc1ccc2nc(-c3ccccn3)cc(C(=O)Nc3ccc(S(=O)(=O)N4CCOCC4)cc3)c2c1
→ 0.71, 7, -1, -6.1, -0.7, i, -3, 0.2, x
[56] Cc1ccccc1CC1(CO)CCCN(C(=O)c2cc(-c3ccccc3)no2)C1 (centres undefined)
→ 0.69, -33, -61, 10, -2.1, i, -5, 0.3, -1%
[57] O=C(C[C@H]1C[C@@H]2c3cc(NC(=O)NC4CCCC4)ccc3O[C@@H]2[C@H](CO)O1)NCc1cccnc1
→ x, 2, 4, -0.9, x, i, x, -1.8, x

As a short view, part of the list above.
Results follow in this order: Ecoli growth, rRNA inh HTS, rRNA inh HTS OD600, rRNA inh HTS RFP, HNF4A DNA FP, FGF22 binding, ALR H2O2 inh, AF4-AF9 inh, Vif TR-FRET
[1] COc1ccccc1OCC(=O)NCC1CCCN(C(=O)c2cccc(C)c2)C1 (centres undefined)
→ x, 12, 3, 0.1, 8.4, i, x, 0.4, x
[2] O=C(NCc1ccco1)c1ccc(CN2CCOCC2)cc1
→ 0.66, x, x, x, 7.7, x, 1, x, -2%
